Bioassay records as filed in PubChem BioAssay.
KCNQ2 enhance – KCNQ2 (rat) channel potentiation. hit rate 0.54% among 310,000. B-score at 10 µM. CHO-K1 KCNQ2, FluxOR thallium flux fluorescence; hits give high values. O88943. AID 2239;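 active = fluorescence ratio B-score at least 3 SD of library B-scores, with initial fluorescence B-score within 3 SD, cut at about 5.3 in these data; same plate scores as AID 2156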;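 note: B-score of peak minus minimum over baseline fluorescence ratio after K+ and Tl+ stimulus; positive B-score means potentiation of KCNQ2 with more thallium influx and brighter signal; only the inactives scoring about 0 or higher are listed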
Target sequence (O88943 whole entry, looked up): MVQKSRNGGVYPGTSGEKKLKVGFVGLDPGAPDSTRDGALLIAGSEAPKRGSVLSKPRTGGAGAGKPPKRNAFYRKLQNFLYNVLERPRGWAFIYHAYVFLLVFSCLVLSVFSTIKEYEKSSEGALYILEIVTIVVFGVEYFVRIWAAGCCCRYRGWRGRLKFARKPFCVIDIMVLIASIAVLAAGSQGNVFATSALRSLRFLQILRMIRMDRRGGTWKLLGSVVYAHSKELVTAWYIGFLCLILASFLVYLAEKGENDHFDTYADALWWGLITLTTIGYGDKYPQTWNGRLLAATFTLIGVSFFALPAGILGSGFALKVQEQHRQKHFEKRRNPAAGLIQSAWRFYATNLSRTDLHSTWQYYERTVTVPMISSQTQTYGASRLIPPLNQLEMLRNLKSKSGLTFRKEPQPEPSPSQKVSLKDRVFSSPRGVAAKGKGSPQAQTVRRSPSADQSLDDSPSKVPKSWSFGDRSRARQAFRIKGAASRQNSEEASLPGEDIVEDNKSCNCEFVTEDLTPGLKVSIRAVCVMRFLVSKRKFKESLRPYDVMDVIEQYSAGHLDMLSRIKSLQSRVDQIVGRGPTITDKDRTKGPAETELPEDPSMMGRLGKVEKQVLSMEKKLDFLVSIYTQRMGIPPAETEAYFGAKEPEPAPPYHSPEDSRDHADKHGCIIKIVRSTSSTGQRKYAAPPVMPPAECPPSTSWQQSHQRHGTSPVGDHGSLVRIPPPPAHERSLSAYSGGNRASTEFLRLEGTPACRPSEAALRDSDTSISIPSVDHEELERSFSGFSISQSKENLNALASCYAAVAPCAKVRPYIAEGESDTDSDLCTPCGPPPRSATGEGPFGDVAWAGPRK
KCNQ2 enhance baseline – second read-out of KCNQ2 enhance, no call of its own (marks repeat the call); B-score; compound at 10 µM; measured here: initial fluorescence intensity artifact check;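 brightness before thallium and not channel activity; 0 = typical well and far values either way flag optical interference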
* hit, by the source's call. Some of the compounds tested; count on the stated rates, not on these rows.

Below each SMILES – KCNQ2 enhance, KCNQ2 enhance baseline
COCC(=O)N1CCC(Oc2ccc(C(=O)N(C)C(C)c3ccon3)cc2)CC1 (stereo not drawn)
 : 0.12, 0.86
CCC1=NN(C(=O)Cc2ccc(OC)c(OC)c2)C(O)(C(F)(F)F)C1 (stereo not drawn)
 : 0.69, 0.47
COc1ccc(N2C(=O)c3ccccc3C2O)cc1 (stereo not drawn)
 : 0.41, 0.3
CN1CCN(c2ccc(NS(=O)(=O)c3ccc(Cl)cc3)cn2)CC1
 : 0.02, 0.63
COc1cccc2[nH]c3c(N4CCCCC4)ncnc3c12
 : 1.2, -0.36
O=C(COC(=O)c1ccc(Cl)nc1)NC(=O)c1ccccc1
 : 2.1, 1.1
CC(=O)Nc1cccc(NC(=O)CSc2nnnn2C)c1
 : 0.35, -0.04
Cc1nnc(SCC(=O)NC2CCCCC2)n(N)c1=O
 : 0.11, 1.6
CCN1CCC(NC(=O)Nc2ccccc2C(=O)OC)CC1
 : 1.5, -3
O=C(N1CCOCCOc2ccccc2OCCOCC1)C(F)(F)F
 : 0.34, -0.23

Next results:
Below each SMILES – KCNQ2 enhance, KCNQ2 enhance baseline
CCc1cc2cccc(C)c2nc1SCC(=O)c1ccc(NC(C)=O)cc1
 : 0.1, 0.8
COc1ccc(N(C(=O)CNC(=O)c2ccco2)C(C(=O)NCC2CCCO2)c2ccccc2)c(OC)c1 (stereo not drawn)
 : 0.66, 1.8
O=C(N/N=C/c1ccc2c(c1)OCO2)c1ccc(NS(=O)(=O)c2cccs2)cc1
 : 2.3, -1.2
CNC(=O)C(=O)Nc1cc2c3c(c1)C(C)C(=O)N3CCC2 (stereo not drawn)
 : 1, 0.01
Cc1ccc(S(=O)(=O)c2cc3c(=O)n4ccccc4nc3n(Cc3ccco3)c2=N)cc1C
 : 1.4, 0.12
CC(=O)c1cccc(NS(=O)(=O)c2ccc3c(c2)oc(=O)n3C)c1
 : 0.62, 0.71
CC(=O)CN1Cc2ccccc2/C1=N\C(=O)Nc1ccccc1
 : 1, 0.72
CN(CC(=O)Nc1ccc(OC(F)(F)F)cc1)S(=O)(=O)c1cnc[nH]1
 : 1.6, -1.8
Cc1ccc(C(=O)OCc2nc3ccsc3c(=O)[nH]2)o1
 : 0.26, -0.67
CCc1nnc(NC(=O)CSc2nc3c(c(=O)n2CC)SC(C)C3)s1 (stereo not drawn)
 : 0.68, -0.05

Additional compounds.
Below each SMILES – KCNQ2 enhance, KCNQ2 enhance baseline
O=C(NCc1ccccn1)C1CCN(C(=O)c2cc3sccc3n2Cc2ccc(F)cc2)CC1
 : 0.51, 0.66
CCOc1cc(C(=O)Nc2ccccc2F)cc(Br)c1OCC
 : 0.93, 0.31
O=C(Nc1ccc(Cl)c(Cl)c1)Nc1nccs1
 : 1.7, -0.45
O=[N+]([O-])c1cc(Cl)ccc1Oc1ccc(-c2nnco2)cc1
 : 0.22, -1
COc1ccc2cc(/C=N/O)c(Cl)nc2c1
 : 2.6, 0.73
COc1ccccc1NS(=O)(=O)c1ccc(Cl)c(NC(=O)c2sc3cc(Cl)ccc3c2Cl)c1
 : 1.1, 0.75
O=C(Nc1cccc(C(F)(F)F)c1)c1ccccc1NC(=O)C1CCCCC1
 : 0.88, -0.33
O=C1CSC(c2cccnc2)N1c1ccc(Cl)cc1 (stereo not drawn)
 : 1.2, -1.2
CC(=O)Nc1cccc(NC(=O)C(=O)Nc2ccc3c(c2)N(C(=O)C2CC2)CCC3)c1
 : 1.4, 0.66
Cc1ccc(C2(CC(=O)Nc3nccs3)CCOC(C(C)C)C2)cc1 (stereo not drawn)
 : 0.47, -0.01

The listing continues.
Below each SMILES – KCNQ2 enhance, KCNQ2 enhance baseline
O=C(O)Cn1c2ccccc2c2ccccc21
 : 2, 0.08
Nc1nc(SCc2ccc([N+](=O)[O-])cc2)nc2nc3c(cc12)CCCC3
 : 0.62, -0.05
CCOC(=O)C1(Cc2ccc(OC)cc2)CCN(C(=O)c2cc(C)nn2C)CC1
 : 0.47, -0.24
Cc1ccc(Cl)cc1-c1ccc(/C=N/n2cnnc2)o1
 : 1.5, 0.48
COc1ccccc1CNCc1cccc(Oc2ccccc2)c1
 : 2.9, 1.6
CCN(CC)C(=O)CSC1=C(C#N)C(c2ccco2)C(C(=O)OCCOC)=C(C)N1 (stereo not drawn)
 : 0.29, -0.33
CC1CCCN(C(=O)C2CCN(S(=O)(=O)c3cccc4nonc34)CC2)C1 (stereo not drawn)
 : 1.3, -0.36
COc1cc(C(=O)N=C2SC3CS(=O)(=O)CC3N2c2ccccc2)cc(OC)c1OC (stereo not drawn)
 : 0.17, -1.5
Cc1ccc(CSc2nc(N)cc(=O)[nH]2)cc1
 : 0.76, -2.1
COc1ccccc1-n1c(Cc2cccs2)n[nH]c1=S
 : 0.64, 0.17

Remaining list, next part.
Below each SMILES – KCNQ2 enhance, KCNQ2 enhance baseline
COC(=O)NNC(=O)Cc1cccc2ccccc12
 : 0.32, -0.59
CCOC(=O)CCCn1nc(C)n2c(cc3sccc32)c1=O
 : 1.1, 0.02
Cc1ccc(S(=O)(=O)NC(Cc2ccccc2)C(=O)O)cc1 (stereo not drawn)
 : 0.01, -3.9
COc1ccc(NC(=O)C2CCCN(S(=O)(=O)c3cccnc3)C2)cc1 (stereo not drawn)
 : 0.72, 0.06
CC1CC(C)CN(Cc2nc(N)nc(Nc3ccc4ccccc4c3)n2)C1 (stereo not drawn)
 : 0.07, -1.3
O=C(CSc1cccc[n+]1[O-])Nc1cccc(Oc2ccccc2)c1
 : 0.97, 1.1
Cc1ccc(NC(=O)NCCCN2CCCC2=O)cc1Cl
 : 0.06, -0.14
COC(=O)c1[nH]c2c(c1C)C(=O)CC(c1ccc(C)cc1)C2 (stereo not drawn)
 : 0.99, -1.3
O=C(O)COc1c(F)c(F)c(C(F)(F)F)c(F)c1F
 : 0.94, 0.24
CCOc1ccc(C2CC(=O)n3nc(C45CC6CC(CC(C6)C4)C5)nc3S2)cc1OC (stereo not drawn)
 : 0.65, -0.72

(list continues)
Below each SMILES – KCNQ2 enhance, KCNQ2 enhance baseline
CCCCn1c(N)c(N(CCOC)C(=O)c2ccc(Cl)c(S(=O)(=O)N3CCCC3)c2)c(=O)[nH]c1=O
 : 0.02, -0.08
O=C(c1ccccc1)c1ccc(-n2ccnc2)c([N+](=O)[O-])c1
 : 0.93, -0.89
O=C1CCCc2c1cc(C(=O)Nc1ccc(Br)cn1)c(=O)n2-c1ccccc1
 : 0.07, 0.4
CCc1ccc2oc(C(=O)N3CCN(c4ccc(OC)cc4)CC3)cc(=O)c2c1
 : 1.1, 1.8
COc1cc(NCCCC(C)N)c2ncccc2c1 (stereo not drawn)
 : 0.63, -0.11
COc1ccc(-c2nnc(NC(=O)CS(=O)(=O)c3ccc(F)cc3)o2)cc1
 : 0.79, -3
CC1(C)CC(=O)c2cn3ncnc3nc2C1
 : 0.34, -0.8
CCCCOC(=O)Nc1ccccc1C(=O)N1CCCC1
 : 0.32, 0.04
COc1cc2c(cc1NC(=O)c1cc(-c3ccncc3)nc3ccc(C)cc13)oc1ccccc12
 : 0.67, -0.03
COc1ccc(F)cc1C(=O)C1CCCN(C(=O)c2ocnc2C)C1 (stereo not drawn)
 : 0.14, -0.59

Continued:
Below each SMILES – KCNQ2 enhance, KCNQ2 enhance baseline
CCOc1ccc(C2NC(=O)C(C#N)=C(S)N2c2ccc(OC)cc2)cc1OC (stereo not drawn)
 : 1.8, -2.2
COc1cc(-c2n[nH]c(=O)o2)cc(OC)c1OC
 : 1.2, -0.02
COc1cc(CNc2ncc(-c3ccc(Br)cc3)n2C)cc(OC)c1O
 : 0.43, 1.8
O=C(C1CCN(C2CCN(Cc3cccc4c3OCO4)CC2)CC1)N1CCOCC1
 : 2.1, 0.04
CC(=O)COc1ccc2c3c(c(=O)oc2c1C)CCCCC3
 : 0.11, -0.42
CCCCC(NC(C)=O)c1nc2ccccc2n1CCCC (stereo not drawn)
 : 2, -0.01
CS(=O)(=O)N1CCN(c2ccc([N+](=O)[O-])c3cccnc23)CC1
 : 0.97, -0.99
Cc1ccc(CNS(=O)(=O)c2ccc3c(c2)CCN3C(=O)C2CCC2)cc1
 : 0.84, -1
CCOC(=O)c1oc2cc(O)ccc2c(=O)c1-c1ccccc1OC
 : 1.4, -1.6
CC(=O)NNC(=O)c1[nH]c2ccc(Br)cc2c1-c1ccccc1
 : 3.3, 0.59

Retrieved by structure from above (four):
Below each SMILES – KCNQ2 enhance, KCNQ2 enhance baseline
COc1ccc(-c2nnc(NC(=O)CS(=O)(=O)c3ccc(F)cc3)o2)cc1
 : 0.79, -3
CC1CCCN(C(=O)C2CCN(S(=O)(=O)c3cccc4nonc34)CC2)C1 (stereo not drawn)
 : 1.3, -0.36
CCOc1ccc(C2NC(=O)C(C#N)=C(S)N2c2ccc(OC)cc2)cc1OC (stereo not drawn)
 : 1.8, -2.2
CCCCOC(=O)Nc1ccccc1C(=O)N1CCCC1
 : 0.32, 0.04

Continuation.
Below each SMILES – KCNQ2 enhance, KCNQ2 enhance baseline
Cc1noc(C)c1COc1ccc(C(=O)Nc2ccccn2)cc1
 : 1.8, -0.13
O=C(Nn1cnnc1)c1cc(Br)ccc1Cl
 : 0.28, -0.37
O=C(CSc1nc(-c2ccc(F)cc2)nc2c1Cc1ccccc1O2)Nc1cccc(C(=O)O)c1
 : 2.5, -1.1
COc1ccc(C(=O)C2CCCN(Cc3ccc(NC(C)=O)cc3)C2)cc1OC (stereo not drawn)
 : 0.12, 2.3
CCOc1ccc(S(=O)(=O)/N=C(/Nc2ccc(OC)cc2)c2ccccc2)cc1
 : 0.33, 0.63
C=CCc1cccc(/C=N/n2cnnc2)c1O
 : 0.67, 0.63
O=C1Oc2ccccc2C(=O)/C1=C\N1CCN(c2ccccc2)CC1
 : 0.31, 1.1
O=C(NC(=S)Nc1ccc(C(F)(F)F)cc1)c1csnn1
 : 21*, 0.2*
CCN1CCCC1CNC(=O)CSc1cc(=O)n(CC)c2ccccc12 (stereo not drawn)
 : 0.49, -1.2
N#Cc1ccccc1OCC(=O)N(C1CCCCC1)C1CCS(=O)(=O)C1 (stereo not drawn)
 : 1.1, -1.4

Profiles, quoted from the list.
COc1ccc(C(=O)C2CCCN(Cc3ccc(NC(C)=O)cc3)C2)cc1OC (stereo not drawn) reads KCNQ2 enhance = 0.12; KCNQ2 enhance baseline = 2.3
CCOc1ccc(S(=O)(=O)/N=C(/Nc2ccc(OC)cc2)c2ccccc2)cc1 reads KCNQ2 enhance = 0.33; KCNQ2 enhance baseline = 0.63

Next section
Below each SMILES – KCNQ2 enhance, KCNQ2 enhance baseline
CCOc1ccc(NC(=O)Cn2cncc2-c2ccc([N+](=O)[O-])cc2)cc1
 : 0.68, 0.53
Nc1nc2ccc(-c3nc4ccccc4o3)cc2s1
 : 0.96, -0.39
CSc1ccc(S(=O)(=O)N2CCC(C(=O)NC3CC3)CC2)cc1
 : 0.01, 0
CCCSc1nnc2c(n1)OC(c1cccn1C)N(C(C)=O)c1ccccc1-2 (stereo not drawn)
 : 0.1, -0.67
CCCC1NC(=S)NC(C)=C1C(C)=O (stereo not drawn)
 : 0.29, -2.7
Cc1cc(C)n2c(=S)[nH]nc2n1
 : 0.73, -1.3
CCOc1cc(NS(=O)(=O)CC)c(OCC)cc1NC(=O)c1ccco1
 : 0.4, 0.81
O=C(NC1(C(F)(F)F)C(=O)Nc2c1c(=O)[nH]c(=O)n2-c1ccc(F)cc1)c1cccnc1 (stereo not drawn)
 : 0.36, -0.88
CC1CCCC(C)N1C(=O)Cn1cc(C#N)c2ccccc21 (stereo not drawn)
 : 0.19, -0.59
O=C(Nc1ccc(Cl)cc1C(=O)Nc1ccncc1)c1ccco1
 : 0.12, -0.78

(list continues)
Below each SMILES – KCNQ2 enhance, KCNQ2 enhance baseline
OC(COc1ccc2ccccc2c1)Cn1ccnc1 (stereo not drawn)
 : 0.17, 0.01
Oc1cnn(-c2ccccc2)c1
 : 0.01, -1.5
CCn1c(C)c(C(C)=O)cc(C#N)c1=O
 : 0.01, 0.79
O=C(CSc1ccccn1)Nc1ccc2c(c1)CCC2
 : 1.8, 0.06
CCOc1ccccc1OCCn1ncc2ccc(OC)c(OC)c2c1=O
 : 0.42, -0.04
Cc1cccc(NS(=O)(=O)c2ccc3nc(-c4ccccc4)[nH]c3c2)c1C
 : 0.88, -0.44
O=C(CSc1nnc(-c2ccccc2Br)o1)N1CCN(C(=O)c2ccco2)CC1
 : 0.18, -0.56
Cc1cc(=O)oc2cc(OCC(=O)Nc3ccc(N4CCC(C)CC4)cc3)ccc12
 : 0.18, -2.3
CC1Sc2ccc(S(=O)(=O)N3CCC(C(=O)N(C)Cc4ccco4)CC3)cc2NC1=O (stereo not drawn)
 : 0.4, 1
O=C(NCCc1ccccn1)c1ccc2nc(Cc3ccccc3F)oc2c1
 : 1.4, -0.07

Additional entries.
Below each SMILES – KCNQ2 enhance, KCNQ2 enhance baseline
COc1c(O)ccc(C2NC(=O)NC(C)=C2C(=O)Nc2ccccc2C)c1[N+](=O)[O-] (stereo not drawn)
 : 0.79, -0.09
CC1(C)Cc2c(sc(NC(=O)Cc3ccccc3)c2C#N)CO1
 : 0.73, 0.06
COc1ccc(CCNC(=O)COC(=O)c2ccc(Br)o2)cc1OC
 : 0.07, -0.51
CCC(CC)c1nnc(NC(=O)Cc2ccccc2[N+](=O)[O-])s1
 : 1.3, -0.57
Cc1ccccc1N(CC(=O)Nc1ccc(S(=O)(=O)N2CCOCC2)cc1)S(C)(=O)=O
 : 1.1, 0.07
Cc1cc(NC(=O)CCl)n(-c2nc3ccccc3s2)n1
 : 0.47, 0.06
COc1cccc(/C=N/NC(=O)c2cnccn2)c1O
 : 0.82, 0.34
CCCCn1c(N)c(N(CC(C)C)C(=O)c2cc3c(s2)CCC3)c(=O)[nH]c1=O
 : 0.43, -0.76
S=C1NC2=C(CCCC2=C2SCCS2)C(c2ccccc2)N1 (stereo not drawn)
 : 1.3, -0.63
